# D2 PAM – human D2 receptor positive allosteric modulation; potentiation, % (no concentration beside the values); hit rate 0.23% among 360,000; AID 624464; DiscoveRx D2 beta-arrestin cells, luminescence, 90 min; 100% = 57 uM dopamine signal; P14416; active = potentiation of 50% or more; inconclusive = 30% to 50%; inactive = 30% or less;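 further: compound concentration not given in the record; tested on top of an EC20 dose of dopamine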
#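 PathHunter beta-arrestin assay in DiscoveRx D2 cells. Compounds were added with an EC20 of dopamine (50 nM final) for 90 min at 37 deg C. Luminescence was read 1 h after detection reagent, with 57 uM dopamine as the EC100 control.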
# TRPML1 agonist – agonists of human TRPML1 channel. AID 624414. hit rate 0.12% among 410,000. activation, % (no concentration beside the values). TRPML1-expressing cells, Ca2+ dye fluorescence, FDSS; host cell line not named in the record; reference of the full effect not given here. Q9GZU1; in the data active = activation above about 50%; inconclusive = about 30% to 50%; inactive = below about 30%; further: 0% is about no effect; the text of the record puts the active cut at 80%
#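 Cells: TRPML1-DL, 1X Tet inducer, ~16 h at 37 degrees C/5% CO2. Dye: ABD Ca8 no-wash + quencher, 45-90 min RT. Read: 10 s baseline, compound add, 110 s agonist phase; 54-4 EC80 (4uM final), 110 s antagonist phase.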
# TRPV1 potentiator – human TRPV1 potentiation. Q8NER1. TRPV1-expressing cells, Fluo-8 calcium influx, capsaicin EC20 potentiation; host cell line not named in the record; control for the full effect not named in the record. potentiation, % at 8.33 µM. hit rate 0.02% among 320,000; active means potentiation above 80%; inconclusive means 30% to 80%; inactive means below 30%; further: 0% is about no effect
# Target sequence (Q8NER1 whole entry, looked up): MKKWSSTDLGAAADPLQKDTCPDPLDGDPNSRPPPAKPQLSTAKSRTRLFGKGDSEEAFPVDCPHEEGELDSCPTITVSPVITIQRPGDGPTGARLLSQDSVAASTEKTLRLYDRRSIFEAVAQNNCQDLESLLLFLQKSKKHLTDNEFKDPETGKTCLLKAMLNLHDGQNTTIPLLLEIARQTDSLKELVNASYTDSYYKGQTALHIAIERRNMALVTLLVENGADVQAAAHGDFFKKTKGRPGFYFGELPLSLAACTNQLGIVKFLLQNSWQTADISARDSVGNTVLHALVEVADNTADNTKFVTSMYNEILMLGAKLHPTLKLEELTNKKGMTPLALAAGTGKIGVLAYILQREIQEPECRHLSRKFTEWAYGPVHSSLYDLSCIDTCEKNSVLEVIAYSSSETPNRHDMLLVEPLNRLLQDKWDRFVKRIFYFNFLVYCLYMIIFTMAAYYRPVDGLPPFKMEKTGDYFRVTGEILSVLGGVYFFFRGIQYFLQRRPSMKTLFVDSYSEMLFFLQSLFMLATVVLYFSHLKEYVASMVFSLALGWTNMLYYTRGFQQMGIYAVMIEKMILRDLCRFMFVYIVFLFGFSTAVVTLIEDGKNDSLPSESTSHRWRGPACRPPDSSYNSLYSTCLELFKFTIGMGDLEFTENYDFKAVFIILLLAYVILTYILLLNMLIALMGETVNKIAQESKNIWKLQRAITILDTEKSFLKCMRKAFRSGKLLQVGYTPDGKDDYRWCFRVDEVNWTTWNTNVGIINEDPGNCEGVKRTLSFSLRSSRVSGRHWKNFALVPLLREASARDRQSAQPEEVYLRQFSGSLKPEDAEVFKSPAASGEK
#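 Fluo-8 calcium influx in TRPV1-expressing cells, kinetic read (ex 480/em 520 nm). Compound added and read 3 min for agonist activity, followed by capsaicin at EC20 final and 2 min further read for enhancement.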
# Six1-Eya2 blk – blocks human Six1 binding to Eya2; Q15475+O00167; AlphaScreen GST-Six1/His-Eya2 binding, biochemical; active compounds read low; control for the full effect not named in the record; activity change, % (no concentration beside the values); hit rate 0.56% among 360,000; AID 651725; in the data active = activity change below about -65%; inconclusive = about -30% to -65%; inactive = above about -30%; further: on the % scale 0 is the no-effect control and ±100 the full control effect
#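 Homogeneous AlphaScreen proximity assay pairing GST-Six1 with His-tagged Eya2 (added as 5X mix: 250 nM and 500 nM) in 50 mM Tris pH 8.0, 300 mM NaCl, 1 mM TCEP. Glutathione donor and nickel acceptor beads; 1 h, 37 °C, dark.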
# TRPML1 blocker – inhibitors of human TRPML1 channel. Q9GZU1. activity change, negative = inhibition, % (test concentration not listed). TRPML1-inducible cells, Ca2+ dye fluorescence, FDSS; active compounds read low; inhibition of EC80 agonist-evoked calcium signal. hit rate 0.02% among 390,000; in the data active means activity change below about -50%; inconclusive means about -30% to -50%; inactive means above about -30%;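 further: stimulus is agonist 54-4 at its EC80 concentration; on the % scale 0 is the no-effect control and ±100 the full control effect; compound concentration not given in the record; the text of the record puts the active cut at -80%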
#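 Tet-induced TRPML1-DL cells loaded with Ca8 no-wash calcium dye were read kinetically on FDSS. Compound addition was followed by EC80 agonist 54-4 (4 uM final); inhibition was read over 110 s.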
# CtBP-E1A blk – CtBP/E1A binding inhibition. activity change, % (no concentration beside the values). AlphaScreen GST-E1A/His-CtBP binding, 1536-well; active compounds read low; control for the full effect not named in the record. hit rate 0.49% among 340,000; in the data active means activity change below about -65%; inconclusive means about -30% to -65%; inactive means above about -30%; further: on the % scale 0 is the no-effect control and ±100 the full control effect
#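 AlphaScreen with 125 nM GST-E1A and 125 nM His-CtBP (5X stocks) in Tris pH 8.0, 300 mM NaCl, BSA, Tween 20, TCEP. Compounds preincubated 2 h at 37 deg C, then glutathione donor/nickel acceptor beads added for 1 h at 37 deg C in dark.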
# * hit, by the source's call; ? = inconclusive; . = no result given; & = joins results of further samples. The order is random; any-hit rate near 0.95%.
SMILES,D2 PAM,TRPML1 agonist,TRPV1 potentiator,Six1-Eya2 blk,TRPML1 blocker,CtBP-E1A blk
C=CCNC(=O)/C(=C\C=C\c1ccccc1)NC(=O)c1ccc(OCCCC)cc1,-19,2.8,-36,3,10,-2
CC1CC(C)CN(c2nc3c(c(=O)n(C)c(=O)n3C)n2CCSc2ncccn2)C1 (configuration not stated),-5,0.4,.,21,5,23
CS(=O)(=O)c1ccc(C(=O)NC2CCCCC2)cc1,3,0.9,8,2,19,3
COC(=O)c1ccc(-c2ccc(OC)c([C@H]3[C@H]4C=CC[C@@H](C)[C@@H]4C(=O)N3Cc3ccccc3)c2)cc1,-5,0.4,-2,?,26,-16
CCS(=O)(=O)c1ccc2c(c1)NC(=O)C(CCO)O2 (configuration not stated),0,1.1,0,1,7,10
COc1ccccc1CNC(=O)c1cccc(S(=O)(=O)N(C)c2ccccc2)c1,4,2.3,3,-1,1,-17
Cn1c(/C=C/c2ccc(Br)cc2)nc2ccccc2c1=O,-10,1.2,-19,0,8,.
CCOCCn1c(COc2ccc(C)cc2)nc2ccccc21,-1,1.2,-7,1,-10,4
CC(C)(C)S(=O)N1Cc2cc(CO)cc(CCO)c2[C@H]1CCO (some centres not stated),.,-0.6,.,12,-4,3
COc1ccc(-n2c(Cc3cccn3C)nnc2SCC(=O)Nc2ccc3c(c2)OCCO3)cc1,11,2.3,-6,-18,11,-9
NC(=O)C1CCN(CC(=O)Nc2ccccc2N2CCOCC2)CC1,-18,-0.5,6,6,-5,.
COc1ccc(NCc2nnc(SCC(=O)Nc3ccccc3OC)o2)cc1,-7,0.1,18,-9,-9,-7
CC(=O)Nc1cc(C)c2nc(NC(C)=O)sc2c1,-4,0.8,2,-2,4,2
O=C(NCCc1ccccc1)c1ccc(S(=O)(=O)N2CCCCC2)cc1,-8,-0.9,.,5,4,3
COC(=O)[C@]12CCCCC=C1N(CCC1=CCCCC1)C(=O)[C@H](CC(=O)N1CCC(c3ccccc3)CC1)C2,.,0.1,.,-16,.,-11
CCCn1c(CN(C)Cc2ccccc2)nc2c1c(=O)n(C)c(=O)n2C,3,1.7,3,-2,53,-1
CCN(CC(=O)NC(=O)NCc1ccco1)Cc1ccccc1,-9,1.6,-11,1,2,0
O=C(Oc1ccc(/C=N/Nc2ccccc2)cc1)c1ccccc1,-3,0.2,.,?,-19,-11
Nc1ccc(-n2ccnc2)cc1,-7,1.1,-2,-2,-5,0
C[C@@H]1CN([C@@H](C)CO)C(=O)c2c(c3ccccc3n2C)-c2ccccc2CO[C@H]1CN(C)C(=O)[C@H](C)c1ccccc1,-13,-0.4,.,-15,3,1
N#CCCN(Cc1ccccc1)C(=S)Nc1ccc(F)cc1,1,1.2,?,-3,-13,9
Cc1ccc(S(=O)(=O)N2CCOCC2)cc1NC(=O)Nc1ccc([N+](=O)[O-])cc1,5,0.5,.,6,13,-2
Nc1cc(=O)[nH]c(SCCSc2ccccc2F)n1,0,1.0,-10,14,-3,-16
CCOC(=O)COn1c(=O)c(-c2ccc(OC)cc2)[n+]([O-])c2ccccc21,-8,0.6,1,-7,-2,-13
CCc1ccc(-c2cc(C)no2)cc1S(=O)(=O)N1CCOc2ccccc21,-11,8.6,-26,2,-5,11
N#C/C(=N\O)c1nc2ccccc2[nH]1,-10,0.9,7,2,10,0
CCCCCCOc1ccc(/C=C/C(=O)N2CCOCC2)cc1OC,1,-0.3,-5,-3,5,6
Clc1cccc(CSc2ncnc3c2ncn3C2CCCCO2)c1 (configuration not stated),-4,-1.1,.,-4,-5,8
CCN(C(=O)COC(=O)c1cccc(S(=O)(=O)N2CCOCC2)c1)C1CCS(=O)(=O)C1 (configuration not stated),13,-0.5,-3,-1,47,2
CCN(CC)S(=O)(=O)c1ccc(C(=O)Nn2cnnc2)cc1,-5,-0.5,9,9,3,11

# One compound at a time (already shown). Screens in order: D2 PAM | TRPML1 agonist | TRPV1 potentiator | Six1-Eya2 blk | TRPML1 blocker | CtBP-E1A blk
# `Cc1ccc(S(=O)(=O)N2CCOCC2)cc1NC(=O)Nc1ccc([N+](=O)[O-])cc1` in the list: 5 | 0.5 | . | 6 | 13 | -2
# `CCN(CC(=O)NC(=O)NCc1ccco1)Cc1ccccc1` in the list: -9 | 1.6 | -11 | 1 | 2 | 0

# Next structures follow.
SMILES,D2 PAM,TRPML1 agonist,TRPV1 potentiator,Six1-Eya2 blk,TRPML1 blocker,CtBP-E1A blk
CCOc1ccc(CNC(=O)C2CCN(c3nn4c(=O)cc(C)nc4s3)CC2)cc1,-3,-0.7&0.1,-1,0,3&2,-4
O=C(c1cc(-c2ccccn2)nc2ccc(Cl)cc12)N1CCN(CCc2ccccc2)CC1,-11,-0.4,-38,-5,1,-2
COc1ccc(/C=N\NC(=O)c2ccccc2F)cc1COc1ccc(F)cc1F,3,4.5,-5,-5,38,0
CC1=Nc2ccccc2/C1=C\c1nc(-c2ccc(F)cc2)oc1O,-13,14,5,-9,2,-5
CC(=O)NNC(=O)CCn1c2c(c3ccccc31)CCCC2,-4,0.2,-5,-1,-23,-1
COc1ccc(C(=O)C2CCCN(C(=O)c3ccc4cc[nH]c4c3)C2)c(C)c1 (configuration not stated),-4,-0.9,7,-14,3,1
COC(=O)C1CC(O)CN1C(=O)c1ccco1 (configuration not stated),-8,0.1,-14,3,2,6
CNC(=O)c1csc(-c2ccccc2)n1,1,-1.3,-15,4,-6,8
O=C(Cc1ccccc1)NCC(=O)N1CCCCCC1,5,-0.4,4,2,17,1
C=CCn1c(SCCC(=O)O)nc2c1c(=O)n(C)c(=O)n2C,-12,0.0,1,-2,-7,7
CCOP(=O)(OCC)c1nc(-c2cccc3ccccc23)oc1N1CCOCC1,2,-1.0,-5,-3,4,9
NS(=O)(=O)c1ccc(CCNC(=O)C2CCN(c3ncnc4c3nc3n4CCCCC3)CC2)cc1,-7,-0.4&-0.5,0,2,-12&-4,.
Cc1ccc([C@@H]2CC=C(C(=O)O)CN2S(=O)(=O)c2ccc(C)cc2)cc1,-17,-0.3,-12,1,6,.
O=C(CSc1nnnn1C1CCCCC1)NCc1ccco1,-9,-0.9,1,-3,-1,-1
O=C(CNC(=O)c1cccs1)N/N=C/c1cccc(Br)c1,-36,0.2,5,-5,-4,-10

# Some values from the list:
# `COc1ccc(/C=N\NC(=O)c2ccccc2F)cc1COc1ccc(F)cc1F` in TRPV1 potentiator reads -5
# `Cc1ccc([C@@H]2CC=C(C(=O)O)CN2S(=O)(=O)c2ccc(C)cc2)cc1` in D2 PAM reads -17
# `O=C(Cc1ccccc1)NCC(=O)N1CCCCCC1` in D2 PAM reads 5
# `CC(=O)NNC(=O)CCn1c2c(c3ccccc31)CCCC2` in TRPML1 agonist reads 0.2
# `O=C(CSc1nnnn1C1CCCCC1)NCc1ccco1` in D2 PAM reads -9
# `NS(=O)(=O)c1ccc(CCNC(=O)C2CCN(c3ncnc4c3nc3n4CCCCC3)CC2)cc1` in TRPML1 agonist reads -0.4&-0.5
# `C=CCn1c(SCCC(=O)O)nc2c1c(=O)n(C)c(=O)n2C` in TRPML1 blocker reads -7

# Other entries
SMILES,D2 PAM,TRPML1 agonist,TRPV1 potentiator,Six1-Eya2 blk,TRPML1 blocker,CtBP-E1A blk
Oc1ccc(Nc2ncnc3scc(-c4ccccc4)c23)cc1,-4,-0.2,-3,-10,-5,0
O=C(CN(C(=O)CCC(=O)Nc1nccs1)c1ccccc1F)NCc1ccc2c(c1)OCO2,5,1.2,6,-2,0,7
C=CCn1cc(C(=O)NCc2ccco2)c(=O)c2cc(S(=O)(=O)N3CCCCCC3)ccc21,-8,0.9,-5,-10,15,-7
O=C(Nc1ccc(SC(F)F)cc1)C1CC(=O)N(Cc2ccccc2)C1 (configuration not stated),-3,-0.1,-17,4,17,4
N#C/C(=C(/O)c1ccc2c(c1)OCO2)c1nc2cc(C(F)(F)F)ccc2s1,-2,-0.9,-1,7,-9,6
Cc1ccc(-c2ccc(CN3C(CC(C)C)C(=O)N(Cc4cn(CC5CCCCC5)nn4)CCS3(=O)=O)cc2)cc1 (configuration not stated),-8,0.8,.,-10,-2,-5
Cc1ccc(-n2c3c(c(=O)[nH]c2=O)C(NS(=O)(=O)c2ccc(Cl)cc2)(C(F)(F)F)C(=O)N3)cc1 (configuration not stated),-16,1.2&0.4,-22,-1,1&-16,4
CCOC(=O)CSc1nnc(CNC(=O)Cc2ccccc2)n1-c1ccccc1OC,-8,0.1,4,0,-10,-1
Cc1cccc(-n2ncc3c(N(C)C4CCCCC4)ncnc32)c1,-2,-0.4,0,3,30,3
CC(C)c1nc(N2CCCC2)c(C#N)c2c1CCCC2,-7,-1.0,-17,4,7,8
CCn1cnc2cc(NCc3ccccc3Cl)ccc21,-14,-1.2,-2,-19,-18,-16
CC(NC(=O)COC(=O)CNC(=O)C1CCCCC1)c1ccccc1 (configuration not stated),-10,-0.1,19,10,3,-8
CC(=O)NS(=O)(=O)c1ccc(NC(=O)CN2C(=O)C3C4C=CC(C4)C3C2=O)cc1 (configuration not stated),14,0.5,17,10,4,-1
CCOc1cc(C2C(C#N)=C(N)OC3=C2C(=O)CC(C)(C)C3)cc([N+](=O)[O-])c1O (configuration not stated),-3,-0.2,-20,1,13,-1
O=C(O)Cc1cc2c(s1)CCCCC2,4,1.9,-13,2,0,0
CCCSc1ccc([C@@H]2[C@H]3C(=O)N(CC)C(=O)[C@H]3[C@]3(C(=O)OC)CCCN23)cc1OC,-13,-0.3,-1,-5,-6,-3
CC1CN2C(c3ccc(Cl)cc3)=CSC2=N1 (configuration not stated),-15,.,-19,12,.,.
Cc1ccc(-c2nc(=O)[nH]c3ccccc23)cc1,-7,-1.0,1,-9,-1,-2
COC1=CC(=O)c2ccccc2C1=O,-27,.,.,-17,.,-25
COCCCn1c(SCC(=O)N2CCOCC2)nc2cc(Cl)ccc2c1=O,3,0.1,-8,5,-6,-1
COc1ccc(S(=O)(=O)NNc2nc(C)cc(C)n2)cc1Br,-22,1.7,16,10,23,-2
CCOc1ccc(CC(=O)NNC(=S)Nc2ccccc2)cc1Br,-16,1.0,8,-6,-4,-3
Cc1ccc2nc(-c3ccc(F)cc3)c(Cc3ccccc3C(F)(F)F)n2c1,-6,0.3,.,-8,17,-9
O=C(CCc1nc2ccccc2s1)N1CCN(c2ccccc2)CC1,-3,1.5,-23,-2,-20,.
CCOC(=O)CN1C(=O)C(=O)c2cc(C)ccc21,-23,-0.5,4,3,-5,0
CCOC(=O)Nc1ccc(C(=O)Oc2ccccc2)c(O)c1,-10,0.1,.,-2,-5,18
N#Cc1c2c(c(Nc3ccccc3)n3c1nc1ccccc13)CCC2,20,2.0,3,-9,-3,2
CC(NC(=O)c1ccc(S(=O)(=O)N(C)C)cc1)c1ccccc1 (configuration not stated),-3,-0.2,15,-1,2,7
N#Cc1cc(-c2ccccc2)nnc1Oc1ccccc1Cl,-27,-0.6,-14,-11,-3,-5
CCSC1=NC(C)(C)C=C(/C=C/c2ccc(Cl)cc2Cl)N1,-21,-0.6,6,-23,11,-21
CC(C)[C@H](NC(=O)c1ccccc1)C(=O)NC1CCCCCCC1,-2,1.2,.,2,12,-4
Cc1cc(C)nc(NS(=O)(=O)c2ccc(N/C=C\C(=O)c3cccs3)cc2)n1,0,-0.4,-1,1,6,.
C=CCN(c1ccccc1)S(=O)(=O)c1cccc(C(=O)N(CC)CC(=O)Nc2c(F)cccc2F)c1,6,3.2,3,-6,-10,-7

# Assay outcomes: PubChem BioAssay, National Center for Advancing Translational Sciences (NCATS)
